E coli growth: inhibitors of Escherichia coli growth; OD600, 23 h; active compounds read low; OD600 absorbance (test concentration not listed); actives 0.21% (n = 330,000); AID 1053175;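 active means OD600 absorbance below the run mean of sample wells minus 3.6 SD, in any replicate, cut at about 0.56 in these data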;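 further: stock transfer was 300 nL into about 60 µL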
The depositor's hits bear a star; & = joins results of further samples. These rows are one share of the data. The share of hits here may be higher or lower than overall.

Start of the data: the first 2 entries, ahead of the listing:
E coli growth | SMILES
0.743 | COc1ccc(C2CC2C(=NOC(=O)c2cccs2)c2ccccc2)cc1 (stereo unspecified)
0.714 | CC(C)CNC(=O)C(=O)NN=Cc1cccs1

The listing, from the start:
E coli growth | SMILES
0.743 | COc1ccc(C2CC2C(=NOC(=O)c2cccs2)c2ccccc2)cc1 (stereo unspecified)
0.714 | CC(C)CNC(=O)C(=O)NN=Cc1cccs1
0.711 | NC(=O)C(=NO)c1ccccc1
0.691 | O=C(Cn1cc(C=NNC(=O)c2ccccc2Br)c2ccccc21)Nc1ccc(F)cc1
0.764 | CCOC(=O)c1ccc2c(c1)nc(SCC(O)=C(C#N)c1nc3ccccc3[nH]1)n2CC
0.715 | COc1cccc(C=NNC(=O)c2cc(-c3cccn3C)n[nH]2)c1
0.699 | CC(C)(C)c1ccc(C=NN2C(=O)CSC2=S)cc1
0.711 | Cc1ccc(C2C(=C(O)c3ccc(Cl)cc3)C(=O)C(=O)N2CC2CCCO2)o1 (stereo unspecified)
0.75 | O=C(NN=Cc1c[nH]c2ccccc12)c1[nH]c2ccc(Br)cc2c1-c1ccccc1
0.702 | COc1ccc2oc(=O)c(C(C)=NNc3ccccc3)cc2c1
0.705 | COc1ccc(C2CC(=O)C=C(c3ccc(F)nc3)C2)cc1OC (stereo unspecified)
0.645 | CC1CN(C(C)CO)C(=O)c2cccc(NS(=O)(=O)c3ccccc3)c2OC1CN(C)CC1CCCCC1 (stereo unspecified)
0.676 | CCNc1nc(NCC)nc(NN=Cc2ccc(O)c(O)c2)n1
0.649 | O=C(NN=Cc1cc([N+](=O)[O-])ccc1O)c1ccc2c(c1)OCCO2
0.708 | O=C(O)c1ccccc1NN=Cc1c(Sc2nnnn2-c2ccccc2)nc2ccccn2c1=O

The list goes on:
E coli growth | SMILES
0.697 | COC(=O)c1ccc(C23CC4(C2)C(CN(Cc2cccnc2)C4c2ccccc2)C3c2ccc(C(F)(F)F)cc2)cc1 (stereo unspecified)
0.734 | NC(=O)COc1cccc(C=NNC(=O)c2ccc(-n3cccc3)cc2)c1
0.706 | OC1c2ccccc2C(Cc2cncs2)C1Br (stereo unspecified)
0.721 | O=C(CNC(=O)C12CC3CC(CC(C3)C1)C2)NN=Cc1ccco1
0.66 | COc1ccc(C(=O)ON=C2CCS(=O)(=O)c3sccc32)cc1
0.675 | NC(=S)NN=C1c2ccccc2-c2c(C(=O)O)cccc21
0.75 | Cc1ccc(-c2ccc(C=NN3C(=O)C4C5C=CC(C6CC56)C4C3=O)o2)c([N+](=O)[O-])c1 (stereo unspecified)
0.706 | O=C(CSc1nnc(SCc2ccc(Cl)cc2)s1)NN=Cc1ccc(Cl)cc1Cl
0.706 | CON=Cc1ccc(N2CCN(C(=O)c3ccc(C)cc3)CC2)c([N+](=O)[O-])c1
0.701 | COc1ccc(NC(=O)CON=C2CCCc3nonc32)cc1
0.669 | S=c1[nH]nc(C2CCCCC2)n1N=Cc1cccs1
0.738 | CC1CN(C(C)CO)C(=O)c2cccc(NC(=O)Nc3ccc4c(c3)OCO4)c2OC1CN(C)Cc1ccc(-c2ccccc2)cc1 (stereo unspecified)
0.665 | COc1cccc(C2=CC(=O)CC(c3ccc(F)cc3)C2)c1 (stereo unspecified)
0.669 | COc1ccccc1NC(=O)C(=NOCc1ccc(C#N)cc1)C(C)=O
0.64 | CC(=NO)c1ccn(S(=O)(=O)c2ccc(Cl)cc2)c1

Quoted at random: two records from the list
E coli growth | SMILES
0.697 | COC(=O)c1ccc(C23CC4(C2)C(CN(Cc2cccnc2)C4c2ccccc2)C3c2ccc(C(F)(F)F)cc2)cc1 (stereo unspecified)
0.691 | O=C(Cn1cc(C=NNC(=O)c2ccccc2Br)c2ccccc21)Nc1ccc(F)cc1

Carrying on:
E coli growth | SMILES
0.686 | COc1cc(C=NNc2ccc(Cl)c(C(=O)O)c2)ccc1OC(=O)c1cccs1
0.738 | Cc1ccc(C=Nn2c(COc3ccccc3)n[nH]c2=S)s1
0.657 | O=S(=O)(N=C(Sc1ccccc1)c1ccccc1)c1ccccc1
0.667 | Cc1ccc(NC(=O)CCC(=O)NN=Cc2cccs2)cc1
0.629 | CC(=NNC(=O)c1ccccc1O)c1ccc(NC(=O)c2ccccc2)cc1
0.721 | CC1CCN(CCC(=O)NN=Cc2ccc([N+](=O)[O-])cc2)CC1
0.654 | O=C(NN=Cc1cccc(Oc2ccccc2)c1)c1cc[n+]([O-])cc1
0.665 | Cc1cccc(C=NNC(=O)c2ccc(Br)cc2)c1
0.714 | CCOC(=O)C(=NNc1cccc(Cl)c1)Sc1nnc(-c2ccc(OC)cc2)n1C
0.675 | CC(=NOC(=O)c1cccc(C(F)(F)F)c1)c1cnccn1
0.678 | CC(=NNC(=O)c1ccccc1)c1c(C)[nH]n(-c2ccccc2)c1=O
0.649 | Cn1cccc1C=NN1CCN(Cc2ccccc2)CC1
0.702 | COC(=O)CN1C(=O)C2C(C3CC3)N3C(=O)CN(Cc4ccccn4)C(=O)[C@@]3(Cc3ccccc3)C2C1=O (stereo partly specified)
0.649 | CC(C=NNC(=O)c1ccncc1)=Cc1ccc(C(C)C)cc1
0.7 | CC#CCN1c2ccccc2[C@]23CC(C(=O)OC)N(C(=O)NC4CCCCC4)C2=NC(C(=O)OC)=C(C(=O)OC)C13 (stereo partly specified)

Carrying on:
E coli growth | SMILES
0.766 | O=c1c(=Cc2ccc(O)cc2)sc2nc(-c3ccccc3)c(-c3ccccc3)n12
0.671 | COc1ccc(C=CS(=O)(=O)NCc2ccccc2)cc1OC
0.701 | Cc1cc(C(C)(C)C)ccc1OCC(=O)NN=Cc1c(C)n(C)n(-c2ccccc2)c1=O
0.645 | COC(=O)C=CC(=O)Nc1cccnc1
0.715 | CCOc1ccccc1NC(=O)C(=O)NN=Cc1cc(Br)ccc1O
0.552 | CC(=NN=C(N)N)c1ccc(Cl)cc1Cl
0.665 | COc1ccc(C2C3C=CCC(C)C3C(=O)N2Cc2ccccc2)cc1Cl (stereo unspecified)
0.64 | CC1(C)Oc2ccc(C(=O)NN=Cc3ccc(O)cc3)cc2NC1=O
0.688 | CCOC(=O)C(C(C)=NNC(=O)C1CC1c1ccccc1)C(C)C (stereo unspecified)
0.661 | CCCSC(N)=NN=Cc1ccccc1O
0.735 | CCOC(=O)C1C(=NO)CC(C)(O)C(C(=O)OCC)C1c1ccc(N(C)C)cc1 (stereo unspecified)
0.673 | COc1ccc(C(=O)NN=Cc2sc(=O)n(Cc3cccc(C(=O)O)c3)c2Cl)cc1
0.674 | COC(=O)C1=C(C(=O)OC)C2N(C)c3ccccc3[C@@]23CC(C(=O)OC)N=C3N1 (stereo partly specified)
0.679 | Cc1ccc(C2CC=C(C(=O)O)C(c3ccc(Cl)cc3)N2S(=O)(=O)c2ccc(C)cc2)cc1 (stereo unspecified)
0.712 | CC(C)OC(=O)C(=CC=Cc1ccccc1)NC(=O)c1ccccc1

Some of the entries so far, as labelled records:
Cc1cc(C(C)(C)C)ccc1OCC(=O)NN=Cc1c(C)n(C)n(-c2ccccc2)c1=O
  E coli growth: 0.701
COC(=O)C=CC(=O)Nc1cccnc1
  E coli growth: 0.645

Additional structures follow.
E coli growth | SMILES
0.676 | CC(=NNc1ccc(S(=O)(=O)Nc2ccc(Cl)cc2)cc1[N+](=O)[O-])c1ccc(N2CCOCC2)cc1
0.707 | COc1ccc(C=NNc2nc(C(=O)O)cs2)cc1
0.704&0.664 | C=CCC(CC(=O)N(CCO)Cc1ccccc1)C(=O)NC(COC(=O)C(CC=C)CC(=O)OC(C)(C)C)Cc1ccccc1 (stereo unspecified)
0.685 | CCCCC1S/C(=N/N=Cc2ccco2)NC1=O (stereo unspecified)
0.724 | O=C1NCC(c2ccccc2)N(CCc2cc(C(F)(F)F)cc(C(F)(F)F)c2)C1=O (stereo unspecified)
0.669 | COc1ccc(-c2nn(-c3ccccc3)cc2C=NN2C(=O)CSC2=S)cc1
0.682 | Cc1ccc(C(=O)NN=Cc2ccc(N3CCOCC3)cc2)c(C)c1
0.661 | CC(CC(=O)N1CCN(C=O)CC1)=NNC(=O)c1ccc(Cl)cc1
0.653 | NC(=S)NN=C1CCOc2ccc(F)cc21
0.75 | C(=NN1CCN(C2c3ccccc3-c3ccccc32)CC1)c1cccs1
0.754 | CN(C)c1ccc(C=NNC(=S)SCN2C(=O)C3CCC(C)(C2=O)C3(C)C)cc1 (stereo unspecified)
0.635 | O=C(NC(c1ccccc1)C1CC1C(=O)O)OCc1ccccc1 (stereo unspecified)
0.715 | CCOc1cc(C=C2SC(=S)NC2=O)ccc1OC(=O)c1ccco1
0.684 | CC1(C)Cc2c(sc(N=CN3CCOCC3)c2C#N)C(C)(C)N1
0.707 | CN(C)c1ccc(C=Nn2c(-c3cccnc3)n[nH]c2=S)cc1

Continuation:
E coli growth | SMILES
0.688 | COC(=O)C1=C(C)N(Cc2ccccc2)C(=NCCc2ccccn2)NC1c1cccc(F)c1 (stereo unspecified)
0.652 | Cc1ccsc1C=NNC(=O)CC(=O)NCc1ccccc1
0.709 | COCCNC(=S)NN=C(C)c1cccc(C(F)(F)F)c1
0.637 | COc1ccccc1N1CCN(N=C(C)c2ccc(O)cc2)CC1
0.739 | CCOC(=O)c1c(NC(=O)C(=O)NN=Cc2ccc(OCC)cc2)sc2c1CCCCC2
0.689 | O=C(NN=C1CC2C=CCC12)c1ccc(Br)o1 (stereo unspecified)
0.718 | CC1CCCCC1=NNc1ccc([N+](=O)[O-])cc1[N+](=O)[O-] (stereo unspecified)
0.53 | O=C(NN=Cc1cc([N+](=O)[O-])ccc1O)c1ccncc1
0.695 | CCN1C(=O)C2C(c3ccc(OC)cc3)N3C(=O)CN(CC4CC4)C(=O)[C@@]3(C)C2C1=O (stereo partly specified)
0.648 | O=C(CN1c2ccccc2Sc2ccccc21)NN=Cc1ccc(Cl)cc1Cl
0.659 | NS(=O)(=O)c1ccc(NN=Cc2ccncc2)cc1
0.69 | CCOC(=O)C1C2COc3ccc(OC)cc3C2N2C(=O)CN(Cc3ccc(OC)cc3)C(=O)[C@@]12C (stereo partly specified)
0.717 | [N-]=[N+]=NCC(Cc1ccccc1)N1CCC(O)CCC1=O (stereo unspecified)
0.671 | O=C(CCC(=O)NN=Cc1ccccc1O)NCc1ccccc1
0.633 | Cc1ccc(S(=O)(=O)N=Cc2c(O)ccc3ccccc23)cc1

Additional records follow:
E coli growth | SMILES
0.64 | O=C(NN=Cc1ccco1)c1cc(-c2ccccc2)n[nH]1
0.745 | CCn1c(O)c(C=NN=Cc2ccc(OC)cc2)c2cc(C3=NNC(=O)CC3)ccc21
0.673 | O=C(NN=Cc1ccc([N+](=O)[O-])s1)C1COc2ccccc2O1 (stereo unspecified)
0.642 | CCOC(=O)c1c(-c2ccc(C)cc2)csc1N=CN(C)C
0.667 | Cc1cc(Cl)c(S(=O)(=O)NN=Cc2ccc3c(c2)OCO3)c(Cl)c1
0.701 | O=C(NN=Cc1ccco1)c1cc(=O)[nH]c2ccccc12
0.646 | C=C(C)CNC(=S)NN=Cc1ccc([N+](=O)[O-])cc1
0.654 | CCOC(=O)C(=NNc1ccc(Cl)cc1)Sc1nnc(-c2ccc(OC)cc2)n1C
0.724 | COc1ccccc1/C=C/C=Nn1c(-c2ccco2)n[nH]c1=S
0.709 | Nc1cc(C(=O)NN=Cc2cccc([N+](=O)[O-])c2)n[nH]c1=O
0.751 | CC(=NNC(=O)c1cccc(NN=C(C)c2ccc([N+](=O)[O-])cc2)c1)c1ccc([N+](=O)[O-])cc1
0.673 | CN(N=Cc1ccccc1Cl)c1ncc(Cl)cc1C(F)(F)F
0.706 | CCOc1ccc(NCC(=O)NN=C/C=C/c2ccccc2)cc1
0.715 | CC(CC(=O)Nc1ccc(C)c(Cl)c1)=NNC(=O)c1ccco1
0.695 | CCCC(=NNC(=O)c1ccco1)c1ccc(Cl)s1

Arranged by heavy-atom count (highest first): part of the list above.
E coli growth | SMILES
0.654 | CCOC(=O)C(=NNc1ccc(Cl)cc1)Sc1nnc(-c2ccc(OC)cc2)n1C
0.667 | Cc1cc(Cl)c(S(=O)(=O)NN=Cc2ccc3c(c2)OCO3)c(Cl)c1
0.715 | CC(CC(=O)Nc1ccc(C)c(Cl)c1)=NNC(=O)c1ccco1
0.642 | CCOC(=O)c1c(-c2ccc(C)cc2)csc1N=CN(C)C
0.646 | C=C(C)CNC(=S)NN=Cc1ccc([N+](=O)[O-])cc1

(further entries)
E coli growth | SMILES
0.592 | Nc1nc2ccccc2n1N=Cc1ccc(-c2ccccc2)o1
0.647 | NC(=O)c1cc2cc(Cl)ccc2oc1=NNC(=O)c1cccs1
0.768 | O=c1c2ccccc2nc(-c2ccco2)n1N=Cc1ccccc1O
0.693 | COc1cc(OC)nc(NN=C(c2ccccc2)c2ccncc2)n1
0.695 | COc1ccccc1C=NNc1nccnc1Cl
0.74 | COc1cc(C=Nn2nnnc2N)ccc1OCc1c(C)no[n+]1[O-]
0.672 | CCN1C(=O)C2C(c3ccc(-c4ccc(OC)cc4)c(OC)c3)N3CCCC[C@@]3(C(=O)OC)C2C1=O (stereo partly specified)
0.631 | S=c1[nH]nc(-c2ccco2)n1N=C/C=C/c1ccco1
0.661&0.696 | O=C(C1=CC(c2csc3ccccc23)CC(OCc2ccc(CO)cc2)O1)N1CCOCC1 (stereo unspecified)
0.707 | CCOc1ccc(-c2c(C(=O)NN=Cc3sccc3C)nnn2-c2nonc2N)cc1
0.695 | COc1cc(C=NNc2cc(C)nc(N)n2)ccc1O
0.797 | Clc1ccc(-c2ccc(C=NNc3cc(N4CCOCC4)nc(N4CCOCC4)n3)o2)cc1
0.743 | COc1ccccc1C(=O)NN=C(C)c1ccc(NC(=O)Cc2ccccc2)cc1
0.686 | CC(C)CC(NC(=O)c1nc[nH]c1C(=O)NC(c1ccccc1)c1ccccc1)C(=O)OCc1ccccc1 (stereo unspecified)
0.702 | Cc1cc(N2CCCC2)ccc1C=Nn1cnnc1

Carrying on:
E coli growth | SMILES
0.67 | C#CCOCCOCCOCCNc1nc(N2CCN(C(=O)C(CCCCN)n3cc(C(N)CC(C)C)nn3)CC2)nc(N2CCN(C(=O)C(CCCCN)n3cc(C(N)CC(C)C)nn3)CC2)n1 (stereo unspecified)
0.683 | CCOc1cccc(-c2c(C(=O)NN=Cc3ccc(C)s3)nnn2-c2nonc2N)c1
0.658 | CSc1nsc(NN=Cc2ccc3c(c2)OCO3)c1C#N
0.659 | CCc1ccc[n+](-c2[nH]c(=O)sc2C=N/N=C(\N)[O-])c1
0.701 | Brc1cccc(C=NNc2nc(N3CCCCC3)nc(N3CCCCC3)n2)c1

Screens (PubChem)
